Screening results from PubChem BioAssay.
Mtb MbtI inh: inhibitors of Mycobacterium tuberculosis siderophore enzyme MbtI; P9WFX0; purified MbtI enzyme, fluorescence intensity read-out; inhibition, %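 (about 17 µg/mL by stock and volumes)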; 100,000 compounds, 0.89% hits; AID 493033;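 active = above 50% in both replicates, above 80% if mildly self-fluorescent; inactive = the rest, strongly fluorescent compounds included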;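 note: 0% = mean of negative and 100% = mean of positive controls; one replicate is shown; some compounds called inactive have numbers as strong as hits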
Target sequence (P9WFX0 whole entry, looked up): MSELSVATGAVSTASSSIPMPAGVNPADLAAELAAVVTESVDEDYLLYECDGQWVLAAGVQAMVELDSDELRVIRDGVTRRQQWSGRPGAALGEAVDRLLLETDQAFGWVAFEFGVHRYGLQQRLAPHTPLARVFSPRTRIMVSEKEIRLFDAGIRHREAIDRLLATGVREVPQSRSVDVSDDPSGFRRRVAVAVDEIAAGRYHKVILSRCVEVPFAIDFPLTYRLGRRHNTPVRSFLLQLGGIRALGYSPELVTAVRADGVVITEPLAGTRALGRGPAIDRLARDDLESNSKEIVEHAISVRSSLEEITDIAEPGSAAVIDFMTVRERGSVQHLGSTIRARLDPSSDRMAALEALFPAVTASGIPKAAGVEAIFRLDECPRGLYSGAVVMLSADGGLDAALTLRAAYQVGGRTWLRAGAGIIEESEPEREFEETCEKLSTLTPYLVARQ
MenB inh: inhibitors of Mycobacterium tuberculosis MenB enzyme; P9WNP5; MenB enzyme assay, absorbance read-out; some hits fall short of the stated cut; inhibition, %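 (about 12 µg/mL by stock and volumes)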; 100,000 compounds, 0.43% hits; AID 540299;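 active = mean of two replicates above 30%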;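 note: 0% = no compound and 100% = wells with inactive enzyme; the first replicate is given; strong numbers were not always called active; inactives centre near -10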
Target sequence (P9WNP5 whole entry, looked up): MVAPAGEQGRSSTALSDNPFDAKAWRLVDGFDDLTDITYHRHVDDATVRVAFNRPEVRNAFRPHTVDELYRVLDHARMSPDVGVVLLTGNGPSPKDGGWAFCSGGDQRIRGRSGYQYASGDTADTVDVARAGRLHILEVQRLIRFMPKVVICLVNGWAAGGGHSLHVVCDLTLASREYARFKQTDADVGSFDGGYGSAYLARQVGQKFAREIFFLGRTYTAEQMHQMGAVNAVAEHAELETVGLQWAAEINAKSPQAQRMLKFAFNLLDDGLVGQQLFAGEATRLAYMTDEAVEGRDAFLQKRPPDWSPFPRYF
Polio RdRp inh: inhibitors of poliovirus RNA polymerase binding and polymerization; poliovirus polymerase elongation, fluorescence polarization; hits give low values; % elongation, % (compound at 16.7 µg/mL); 150,000 compounds, 0.66% hits; in the data active = % elongation below about 90%; note: some results filed as inactive read as strong as hits
Polio RdRp inh intensity: further read-out of Polio RdRp inh, marked with its call; % elongation; measured here: total intensity read-out; formula for this scale not given here;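 total fluorescence in place of polarization; lower means less elongation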
* marks the source's active call; other numbers are inactive results; / = not tested or not shown; & = joins results of further samples. Rows are unselected; overall some 2% were active at least once.

nr	Compound	Mtb MbtI inh	MenB inh	Polio RdRp inh	Polio RdRp inh intensity
1	Cc1ccc(-c2cc(N)n[nH]2)cc1	-15	0	101	105
2	CN(CCO)S(=O)(=O)c1ccc2c(c1)C(=NO)c1cc(S(=O)(=O)N(C)CCO)ccc1-2	26	-6	102	105
3	Cc1nc2sc(C(c3ccccc3)N3CCC(C)CC3)c(O)n2n1 (stereo unspecified)	3	-7	98	99
4	CCOc1ccc2c(O)csc2c1	23	-1	103	102
5	CC(=O)N1CCN(C(=O)Cc2csc3nc(-c4ccc(Cl)cc4)cn23)CC1	-13	-11	100	104
6	CCOC(=O)c1c(C)sc2c(C)c(C)[nH]c12	/	11	102	105
7	Cc1ccc2c(c1)c1c(n2CCc2ccncc2)CCN(C)C1	/	5	99	101
8	CCCN(CCC)C(=O)C(C)Sc1nc2ccccc2c(=O)n1C (stereo unspecified)	0	-23	105	102
9	O=C(NCCN1CCOCC1)c1cn2ccccc2n1	18	/	103	99
10	OCC12CC3CCC(CC(C3)C1)C2	4	15	102	103
11	Cc1cc(=O)[nH]c(Nc2ccc(O)cc2)n1	8	-3	101	101
12	CCC1CCCCN1C1Sc2ccc(C(=O)OC)cc2NC1=O (stereo unspecified)	14	-40	99	102
13	CCOc1ccccc1NC(=O)CNC(C)c1ccccc1OC (stereo unspecified)	6	-3	109	109
14	CCOc1cccc(/C=N/NC(=O)c2cccc(S(=O)(=O)N(CC)CC)c2)c1O	-11	-89	55	238
15	CN(Cc1nc2ccccc2c(=O)[nH]1)Cc1nc2sc3c(c2c(=O)[nH]1)CCCC3	0	-42	107	105
16	CCc1ccccc1NC(=O)Cc1noc2ccccc12	-2	-25	102	102
17	CC(=O)n1c2ccccc2c2c1c1ccccc1n2C	170	-54	100	104
18	N#Cc1c(C(F)(F)F)cc(-c2cccs2)nc1SCc1nc2c(oc3ccccc32)c(=O)[nH]1	-78	-1	109	122
19	Fc1ccccc1Nc1ncnc2c1nnn2Cc1ccccc1	-4	1	105	97
20	O=C(O)CCn1ccc2cc(S(=O)(=O)N3CCCC3)ccc21	8	-14	99	106
21	CCOC(=O)c1cc(Cl)c(O)c(Cl)c1	14	-13	100	103
22	CC1CC(C)CN(C(=O)CS(=O)(=O)c2ccccc2)C1 (stereo unspecified)	-7	-19	104	103
23	CCOC(=O)c1cc2occc2n1CC(=O)N1CCCCC1C (stereo unspecified)	19	-75	102	102
24	O=C1c2ccccc2C(=O)N1CCCOc1ccccc1	-7	5	101	104
25	COCCOc1ccc(C(F)(F)F)cc1NC(=O)CSc1nnc(-c2ccc(F)cc2)o1	-8	-4	104	108
26	O=S(=O)(Nc1ccc(C(O)(C(F)(F)F)C(F)(F)F)cc1)c1ccccc1	-10	/	103	107
27	O=C(OC1CCCCC1=O)c1ccc(F)cc1Cl (stereo unspecified)	7	-12	106	102
28	Cc1ccc(NC(=O)CN(C)S(=O)(=O)c2ccc3c(c2)CCCC(=O)N3)cc1F	5	9	101	98
29	Cc1ccc(/C(O)=C2/C(=O)C(=O)N(CC3CCCO3)C23C(=O)N(C)c2ccccc23)cc1 (stereo unspecified)	9	-11	101	103
30	Cc1cccc(N2CCN(CCCNc3ncnc4onc(C)c34)CC2C)c1 (stereo unspecified)	-12	-22	103	101
31	O=C(Nc1ccccc1C(=O)OCc1nc2sc3c(c2c(=O)[nH]1)CCCC3)c1ccco1	-1	9	116	128
32	N#CCCN1N=C(c2ccccc2)/C(=C\c2cn(CCC#N)nc2-c2ccccc2)C1=O	-4	-12	105	112
33	CCCc1nc2ccccc2n1CC(=O)N1CCc2ccccc2C1	-6	/	104	107
34	CC(NC(=O)CCCc1cccs1)c1ccc(S(N)(=O)=O)cc1 (stereo unspecified)	-4	0	107	111
35	c1csc(CNc2ccc(-c3nc4ncccc4o3)cc2)c1	89	-22	99	100
36	O=C1CCC(=O)N1CN1CCOCC1	-12	-2	102	101
37	CCc1ccccc1NC(=O)CCNS(=O)(=O)c1ccc2[nH]c(=O)ccc2c1	-3	3	101	103
38	CC(C=C1C(=O)NC(=O)NC1=O)c1ccccc1 (stereo unspecified)	-10	-3	104	108
39	Cc1c(C(=O)O)cc(-c2ccccc2)n1CCSCc1c(F)cccc1Cl	-4	-10	99	100
40	CCCC(C)c1c(O)n(CC)c(=S)[nH]c1=O (stereo unspecified)	-8	-2	100	103
41	Oc1ccc(/C=N/n2cnn(Cc3ccccc3Cl)c2=S)c(O)c1	27	-50	87*	91*
42	CCCN(CCC)Cc1c(C(=O)O)nnn1-c1nonc1N	-11	-15	101	100
43	CCCCCC(=O)Nc1ccc(Cc2ccncc2)cc1	-15	-14	103	101
44	O=C(c1csc2c1CCCC2)N1CCOCC1	-6	/	100	96
45	N#C/C(=C(/O)Cn1nc(C(=O)O)c2ccccc2c1=O)c1nc2ccccc2[nH]1	3	2	112	119
46	CN(C)S(=O)(=O)c1ccc2c(c1)c(=O)c(C(=O)N1CCN(c3ccccc3)CC1)cn2C	-1	-14	101	102
47	Cc1cc(C)n(-c2ccc3nncn3n2)n1	0	/	102	103
48	CC1(C)CC(=O)c2c(SCC(=O)NN)sc(C#N)c2C1	-9	-6	112	116
49	CCC(C(=O)Nc1ccc(S(N)(=O)=O)cc1)c1ccccc1 (stereo unspecified)	/	-5	106	99
50	Cc1cc(C)c(C(=O)N2CCCCC2C)c(C)c1 (stereo unspecified)	19	-6	102	103
51	CCC(=O)N=c1sc2ccccc2n1C	11	-16	104	101
52	c1ccc(C2CCCN(c3ncnc4nc[nH]c34)C2)cc1 (stereo unspecified)	0	-1	99	102
53	Clc1ccccc1/C=C/C=Nc1ccc(N2CCOCC2)cc1	6	-1	100	99
54	CCOC(=O)c1ccc(NC(=O)c2ccc(C)cc2)cc1	15	-2	101	103
55	COCCn1c(=O)[nH]c2cc(C(=O)N3CCN(Cc4ccc5c(c4)OCO5)CC3)ccc2c1=O	-20	0	102	104
56	CCOC(=O)c1c(C)[nH]c(C)c1C(=O)Cn1c(C)nc2cc3c(cc21)OCCO3	-2	-8	107	112
57	C=C1C(C(=O)N2CCN(Cc3ccccc3)CC2)C1C(=O)N1CCN(Cc2ccccc2)CC1 (stereo unspecified)	-5	1	102	107
58	O=c1[nH][nH]c(=S)n1Cc1ccccc1	35&25	-10&-7	103&99	98&100
59	CCn1c(=NC(=O)CSCC(=O)Nc2cc(C)on2)sc2ccccc21	0	-24	102	104
60	Cc1ccc(-c2nnn(CC(=O)N3N=C(c4cccs4)CC3c3ccco3)n2)cc1 (stereo unspecified)	103	-18	101	98

Values by screen from above:
Nos. 49–55 in MenB inh: -5, -6, -16, -1, -1, -2, 0
Nos. 49–55 in Mtb MbtI inh: /, 19, 11, 0, 6, 15, -20

Given field by field: 4 of the compounds above
#56 CCOC(=O)c1c(C)[nH]c(C)c1C(=O)Cn1c(C)nc2cc3c(cc21)OCCO3
  Mtb MbtI inh = -2
  MenB inh = -8
  Polio RdRp inh = 107
  Polio RdRp inh intensity = 112

#57 C=C1C(C(=O)N2CCN(Cc3ccccc3)CC2)C1C(=O)N1CCN(Cc2ccccc2)CC1 (stereo unspecified)
  Mtb MbtI inh = -5
  MenB inh = 1
  Polio RdRp inh = 102
  Polio RdRp inh intensity = 107

#58 O=c1[nH][nH]c(=S)n1Cc1ccccc1
  Mtb MbtI inh = 35&25
  MenB inh = -10&-7
  Polio RdRp inh = 103&99
  Polio RdRp inh intensity = 98&100

#59 CCn1c(=NC(=O)CSCC(=O)Nc2cc(C)on2)sc2ccccc21
  Mtb MbtI inh = 0
  MenB inh = -24
  Polio RdRp inh = 102
  Polio RdRp inh intensity = 104

Remaining list, next part:
nr	Compound	Mtb MbtI inh	MenB inh	Polio RdRp inh	Polio RdRp inh intensity
61	COc1ccc(C2=NC(C)(C)N(CC(=O)Nc3ccccc3)C2=O)cc1	-3	5	101	101
62	c1ccc(-c2noc(NCCN3CCOCC3)n2)cc1	-19	-10	104	103
63	COc1ccc2nc(N=C(N)N)nc(C)c2c1	/	4	65*	87*
64	C1=C(c2ccccc2)CC(c2ccccc2)=NN=C1c1ccccc1	-14	9	106	114
65	S=C=NCc1ccccc1	29	6	103	100
66	O=C(Nc1ccccc1)c1cccc(S(=O)(=O)N2CCCCC2)c1	-6	-17	102	104
67	Cc1nc(COC(=O)c2ccc3c(=O)n4c(nc3c2)CCCCC4)cs1	-12	10	97	89
68	CCS(=O)(=O)c1nc(S(=O)(=O)c2ccc(Cl)cc2)c(N2CCCC2)s1	-7	-15	104	107
69	Cc1oc(-c2ccccc2)nc1CS(=O)CC(=O)N(C)Cc1ccccc1 (stereo unspecified)	23	-11	102	104
70	Clc1ccc(-c2nnn3c2nc(Cl)c2ccccc23)cc1	-6	0	99	104
71	COc1ccc(/C=C2\SC(=NC3CCCC3)NC2=O)cc1	13	-108	97	99
72	C=CCOc1ccccc1OCC(O)CNC(C)C (stereo unspecified)	0	-8	99	102
73	O=C(COC(=O)Cc1cccc(C(F)(F)F)c1)NCc1ccco1	-10	/	103	102
74	Cc1ccc(O)cc1	-3	10	100	101
75	O=C(Nc1cccc(-n2cnnn2)c1)C1CC(=O)N(c2ccc3c(c2)OCCO3)C1 (stereo unspecified)	-8	-24	105	103
76	CN(C)C(=O)Oc1ccnc2cc(Cl)ccc12	5	12	100	101
77	O=C(CCn1c(=O)oc2ccccc21)N1CCCc2ccccc21	2	-41	102	101
78	CCCCn1ncc(O)c(Cl)c1=O	1	-11	100	101
79	Cn1c(=O)[nH]c(=O)c2c1nc1oc(C(C)(C)C)cn12	-1	-23	108	103
80	c1ccc(Sc2ncnc3c2oc2ccccc23)cc1	-2	-52	102	99
81	Cc1cccc(C)c1NC(=O)C(C)N (stereo unspecified)	-11	-6	96	116
82	CCn1c(=S)[nH]c2cc(C(=O)O)ccc2c1=O	-7	-20	101	112
83	CSC(=NC(=O)c1c(Cl)cccc1Cl)N1CCCC1	-5	11	99	104
84	Fc1cccc(Cl)c1CN1CCNCC1	-17	4	105	111
85	Cc1nnc(C)n1N1C(=O)c2cccc3cccc(c23)C1=O	-279	-16	100	102
86	COc1ccc(OC)c(COC(=O)Cc2coc3cc(OC)ccc23)c1	19	-7	111	105
87	CC(C)(C)NC(=O)CN1CCN(CC(N)=S)CC1	-2	-10	108	117
88	Cc1ccnc(NC(=O)c2cccs2)c1	/	-3	98	93
89	O=C(c1ccc(CNS(=O)(=O)c2ccc(F)c(Cl)c2)cc1)N1CCOCC1	-3	12	100	106
90	CCCCn1c(=O)c(CCC(=O)O)nc2ccccc21	-16	/	103	98

Looked up by structure from the entries so far (four):
nr	Compound	Mtb MbtI inh	MenB inh	Polio RdRp inh	Polio RdRp inh intensity
29	Cc1ccc(/C(O)=C2/C(=O)C(=O)N(CC3CCCO3)C23C(=O)N(C)c2ccccc23)cc1 (stereo unspecified)	9	-11	101	103
48	CC1(C)CC(=O)c2c(SCC(=O)NN)sc(C#N)c2C1	-9	-6	112	116
25	COCCOc1ccc(C(F)(F)F)cc1NC(=O)CSc1nnc(-c2ccc(F)cc2)o1	-8	-4	104	108
36	O=C1CCC(=O)N1CN1CCOCC1	-12	-2	102	101

(cont.)
nr	Compound	Mtb MbtI inh	MenB inh	Polio RdRp inh	Polio RdRp inh intensity
91	COc1cccc(CSc2nc3ccncc3n2CC(=O)Nc2ccc(N(C)C)cc2)c1	-3	2	100	104
92	CC(NC(N)=O)C1CC1 (stereo unspecified)	18	5	96	96
93	COc1ccc(OC)c(-n2c(N)c(C#N)c3nc4ccccc4nc32)c1	-23	-77	111	108
94	O=C(CCCn1sc2ccccc2c1=O)N1CCc2ccccc21	37	-12	104	97
95	COc1ccc(N2CCN(C(=O)CCNC(C)=O)CC2)cc1	5	4	/	/
96	Cc1nc2sccn2c(=O)c1S(=O)(=O)N1CCN(c2ccccc2)CC1	-15	-7	105	101
97	CCCN(Cc1nnc(-c2ccco2)o1)C(=O)c1cccnc1SCc1c(C)noc1C	-13	-28	89*	93*
98	O=C(NC(=S)N(Cc1cccnc1)Cc1ccccc1Cl)c1ccccc1	/	-47	103	112
99	C1CCc2nnnn2CC1	1	-15	99	100
100	N#CCOc1ccc(C(=O)NC2CCN(Cc3ccccc3)CC2)cc1	2	-13	103	108
101	C=CCN(CC)C(=O)C1C(=O)CC(C)(C)CC1=O	-3	4	103	100
102	Cn1ncc(C#N)c1/N=C/N1CCCCC1	-1	-2	103	102
103	CC(OC(=O)c1ccc2c(=O)n3c(nc2c1)CCCCC3)C(=O)Nc1ccc(Cl)cn1 (stereo unspecified)	77	1	104	104
104	Cc1ccc(C(C)C)c(OCCN2CC(C)CC(C)C2)c1 (stereo unspecified)	-6	-19	102	103
105	CC(C)C(=O)Nc1ccc2oc(-c3cccc4c(Br)cccc34)nc2c1	3	-31	98	102

Some of these compounds in order of SMILES length, smallest number first:
nr	Compound	Mtb MbtI inh	MenB inh	Polio RdRp inh	Polio RdRp inh intensity
99	C1CCc2nnnn2CC1	1	-15	99	100
92	CC(NC(N)=O)C1CC1 (stereo unspecified)	18	5	96	96
98	O=C(NC(=S)N(Cc1cccnc1)Cc1ccccc1Cl)c1ccccc1	/	-47	103	112
